CSC inhib – cancer stem cell inhibition | cancer stem cell-like cells viability, luminescence | inhibition, % at 7.5 µM | 1.1% of 300,000 active | AID 2717;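 active = mean at 75% or more and at least half the replicates too; tested in HMLE shEcad cells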;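 also: 0% = median of negative and 100% = median of positive control wells; the first replicate is given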
Env fusion inh – blocks HIV Env-driven cell-cell fusion; 1.1% of 360,000 active; AID 651610; inhibition, % at 12.3 µM; HeLa-JRFL Env/CEM21 cell fusion, luciferase;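 active = mean replicate inhibition score of at least 50 and every replicate individually at or above 50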;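 also: 0% = plate neutral controls and 100% = maraviroc near 300 nM; one replicate is shown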
Rce1 inh – inhibitors of yeast Ras-converting enzyme | Q03530 | AID 2563 | 0.27% of 290,000 active | calls only | yeast membranes, quenched prenylated peptide cleavage fluorescence;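 active = fall in fluorescence gain of 50% or more versus controls, with final raw signal at or below 3038400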;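 also: plate controls were neutral control wells for no effect and wells lacking membranes for full effect; tested at 10 µM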
MT1-MMP act inh – inhibitors of human MT1-MMP activation. P50281. HT1080 RFP-PRO-GFP cells, GFP/RFP ratio fluorescence, overnight; percent of plate control window, DMSO zero. GFP/RFP ratio change, % at 20 µM. 0.061% of 360,000 active;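 active = GFP/RFP ratio change of at least 30% with cell ATP level not reduced by more than half and red fluorescence within 50% of control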; also: strong numbers were not always called active
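Assay system: HT1080 cells carrying an RFP-PRO-GFP reporter | Dosing: Single dose of 20 µM compound, 1% DMSO final | Incubation: Cells overnight before dosing, compound overnight, 37 °C, 5% CO2 | Evaluation: GFP/RFP fluorescence ratio | Control set: DMSO and RFP-L50D-GFP cell wells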
eIF4H inh – inhibitors of RNA binding by human eIF4H; eIF4H fluorescence polarization binding assay; 0.94% of 290,000 active; inhibition, % at 35 µM; Q15056;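 active = 50% or more with normal probe brightness, or confirmed in later tests; about a fifth of its hits are not listed in these tables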;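 also: calls also rest on retests at 20 µM and on dose response follow-up; 0% = protein and probe with vehicle and 100% = probe without protein; strong numbers were not always called active; many hits fall short of the cut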
UUG fidelity – alters start codon recognition fidelity in yeast; S. cerevisiae UUG-firefly luciferase reporter, luminescence/redox ratio; activity score, % at 18.7 µM; 0.13% of 350,000 active; AID 602363;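 active = replicate mean at a twofold rise or more, about +100% in these data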;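 also: firefly luciferase made from a UUG start codon reports start codon fidelity; reporter light over untreated wells divided by growth signal over untreated wells; some hits fall short of that in this replicate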
PABP polyA inh – PABP-poly(A) binding inhibition; PABP-poly(A) RNA binding, fluorescence polarization; AID 2014; 1% of 290,000 active; inhibition, % at 35 µM; P11940;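 active = 50% or more with normal probe brightness, or confirmed in later tests; about a fifth of its hits are not listed in these tables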;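 also: calls also rest on retests at 20 µM and on dose response follow-up; controls were probe without protein and protein plus probe with vehicle; some compounds called inactive have numbers as strong as hits; many hits fall short of the cut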
Target sequence (P11940 whole entry, looked up): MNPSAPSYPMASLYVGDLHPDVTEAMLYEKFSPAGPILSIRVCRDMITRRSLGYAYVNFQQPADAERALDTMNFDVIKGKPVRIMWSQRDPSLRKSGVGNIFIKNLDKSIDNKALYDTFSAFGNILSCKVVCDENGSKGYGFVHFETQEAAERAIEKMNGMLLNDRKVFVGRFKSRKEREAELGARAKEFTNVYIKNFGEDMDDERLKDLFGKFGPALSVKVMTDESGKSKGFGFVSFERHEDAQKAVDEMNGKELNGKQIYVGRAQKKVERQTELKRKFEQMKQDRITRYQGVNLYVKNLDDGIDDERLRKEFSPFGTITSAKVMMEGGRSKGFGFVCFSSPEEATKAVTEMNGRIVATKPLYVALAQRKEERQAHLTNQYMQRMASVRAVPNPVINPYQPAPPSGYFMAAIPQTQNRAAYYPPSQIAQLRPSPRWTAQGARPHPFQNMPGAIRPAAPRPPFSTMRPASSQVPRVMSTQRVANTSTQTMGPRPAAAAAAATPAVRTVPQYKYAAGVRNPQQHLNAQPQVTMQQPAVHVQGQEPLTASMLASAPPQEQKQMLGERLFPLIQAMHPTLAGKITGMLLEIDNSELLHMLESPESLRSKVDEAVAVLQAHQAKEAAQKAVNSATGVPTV
MT1-MMP act inh RFP – also measured in MT1-MMP act inh; calls as there; RFP signal change, %; measured here: RFP expression control read;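 0 = vehicle wells; hits needed this value within 50% of zero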
The depositor's hits bear a star; i = inactive; nt = not tested or not shown; [ ] = another dose, or the depositor's remark. The list is partial; count on the stated rates, not on these rows.

SMILES	CSC inhib	Env fusion inh	Rce1 inh	MT1-MMP act inh	MT1-MMP act inh RFP	eIF4H inh	UUG fidelity	PABP polyA inh
CCOC(=O)C1CCN(C(=O)c2ccc3c(=O)n4nc(Nc5cc(C)ccc5C)sc4nc3c2)CC1	9	8	i	-1	-4	-5	4	5
Cc1[nH]n(-c2ccccc2)c(=O)c1C=Nc1ccc2[nH]c(=O)[nH]c2c1	-4	19	i	-1	4	8	-3	1
COc1cccc(C(=O)Nc2nc(-c3ccccc3)c(-c3ccccc3)o2)c1	20	6	i	4	4	17	nt	-1
CC(C)S(=O)(=O)c1csc(C(=O)NNC(=O)Nc2ccccc2)c1Cl	-7	0	i	1	1	-8	-14	-1
Cn1c(-c2ccccc2)cnc1NCc1cc(Cl)ccc1O	-7	-25	i	-1	0	-1	-19	6
CC(C)(C)Nc1nc(Cl)nc(Nc2ccccc2)n1	0	-30	i	-5	-4	1	2	10
COc1ccc(NC(=O)CN(C)C(=O)c2ccc(NS(=O)(=O)c3ccc4[nH]c(=O)[nH]c4c3)cc2)cc1	-1	7	nt	-2	2	nt	0	nt
CCOC(=O)c1c(NC(=O)NC(C)(C)C)sc2c1CCN(C)C2	-1	7	i	0	-2	-10	1	2
Cc1ccc2oc(-c3cccc(NC(=O)c4ccc(Br)o4)c3C)nc2c1	-16	nt	i	7	7	-2	-12	-3
CCOC(=O)C1CCCN(C/C(O)=C(\C#N)c2nc(-c3ccc(Cl)cc3)cs2)C1 (stereo not drawn)	9	nt	i	1	-4	5	-20	5
O=C(CN1CCN(c2ccc(O)cc2)CC1)Nc1ccc2c(c1)OCCCO2	19	0	nt	3	-3	nt	-7	nt
O=C(Nc1ccccc1F)C1CCN(S(=O)(=O)c2cccnc2)CC1	-24	-10	i	-2	2	nt	-18	nt
COC(=O)c1cc(NC(=O)c2cc(-c3ccc(Cl)cc3)oc2C(F)(F)F)ccc1N1CCOCC1	40	7	i	1	-7	-18	-17	-1
COc1cc(C(=O)OCC(=O)Nc2ccc(S(=O)(=O)N3CCCC3)cc2)cc(OC)c1OC	-10	-5	nt	4	-9	nt	2	nt
CC(C)(C)n1nnnc1C(c1cccs1)N(Cc1cccnc1)CC1CCCO1 (stereo not drawn)	-4	nt	i	-2	-4	-8	-18	-3
CC(C)c1ccc(/C=C2\CC/C(=C\C=N\N(C)C)C2=O)cc1	nt	-68	i	-2	1	13	-17	0
Cc1ccc2c(c1)N(CCCC(=O)NCC1COc3ccccc3O1)C(=O)CO2 (stereo not drawn)	-16	21	i	8	4	-2	-16	1
COc1ccc(-c2cnc(N)nc2-c2ccc(OCc3ccccc3)cc2O)cc1	30	12	i	-12	-8	-1	-28	0
Cc1cccc(-c2nnc(SCC(=O)NC3CCCC3)o2)c1	nt	2	i	-2	-1	-4	-4	2
CCOC(=O)C1CCCN(Cc2cc(Br)ccc2OC)C1 (stereo not drawn)	-4	-10	nt	0	8	5	-6	4
O=C(NCCc1ccc(Cl)cc1)c1ccc2c(c1)OCO2	-15	-70	i	2	-3	-5	-15	6
CCOC(=O)c1nn(-c2ccccc2)c(=O)cc1OCC(=O)Nc1cc(C)ccc1C	-4	-31	i	2	-8	nt	-4	nt
Cc1ccc(S(=O)(=O)NCC(=O)N2CCc3ccccc3C2)cc1	9	-15	nt	0	1	-2	9	-7
COc1cccc(C2c3c(-c4ccccc4)n[nH]c3C(=O)N2c2ccc(C(=O)O)cc2)c1 (stereo not drawn)	-4	-54	i	2	3	0	-9	3
CCc1cc2c(=O)n(-c3ccccc3)cnc2s1	-9	nt	i	-2	1	4	11	18
O=C(/C=C/c1ccc2c(c1)OCO2)NCc1ccc(F)cc1	8	8	i	4	3	5	-19	4
CS(=O)(=O)N(CC(=O)NC1CCCC1)Cc1ccc(F)cc1	-9	12	i	1	3	2	-8	2
Fc1ccc(COc2ccc(Br)cc2CNCc2ccncc2)cc1	nt	35	i	-30	-31	-4	-38	15
CC(C)n1cnnc1SCC(=O)NC(=O)c1ccccc1	4	13	i	-7	3	nt	-1	nt
CCOC(=O)c1c(N2C(=O)C3C4C=CC(O4)C3C2=O)sc2c1CCCC2 (stereo not drawn)	-2	nt	i	-2	5	-4	nt	-8
COc1ccc(CN(C)Cc2cc(=O)n3ccsc3n2)c(OC)c1OC	-6	8	i	1	8	0	-12	-12
CN(C)c1cccc2c1c(NC(=O)c1ccc(Cl)cc1)nn2C	-7	-44	i	0	-4	7	-19	3
Cc1ccnc(NC(=O)c2ccc(COc3c(F)c(F)cc(F)c3F)o2)c1	-16	6	i	1	0	1	-19	-1
CCOc1cc(/C=C2/NC(=O)N(CC(=O)Nc3cccc(C)c3)C2=O)ccc1OCC(N)=O	2	12	i	2	-2	10	nt	13
CN(C)N1C(N)=C(C#N)C(c2ccccc2Cl)C2=C1CCCC2=O (stereo not drawn)	1	10	i	-2	6	0	-11	1
NC(=O)C1CCN(C(=O)Cc2ccc(-c3ccccc3)cc2)CC1	-4	25	i	0	-1	-4	-8	7
Cc1ccc2c(c1)N(CC(=O)N1CCCc3ccccc31)C(=O)CO2	-7	nt	i	1	3	-12	-16	-2
Cc1cc(C)n2nc(SCC(=O)N3CCC(C(=O)O)CC3)nc2n1	-18	-20	nt	3	4	nt	nt	nt
CC(NCc1ccccc1O)C12CC3CC(CC(C3)C1)C2 (stereo not drawn)	17	28	i	-2	-2	-8	-8	-6
Cc1cccc(CN2CCCC(C(=O)c3ccc4c5c(cccc35)CC4)C2)n1 (stereo not drawn)	7	24	i	0	1	11	-14	-8
COC(=O)c1ccc(CSc2nc3ccccc3o2)cc1	-12	-24	i	10	-4	-6	-35	-1
COc1ccc(NC(=O)C(c2ccccc2)N2CCN(c3ccccn3)CC2)cc1Cl (stereo not drawn)	-4	-14	i	0	0	-5	nt	5
Oc1c(Br)cc(Br)cc1CNn1cnnc1	1	2	i	0	3	2	-5	7
C=C1CCN([C@@H](CC(C)C)C(=O)NCc2ccc(OC)cc2)S(=O)(=O)c2ccccc21	-15	14	i	-3	-5	nt	-3	nt
O=C1CCCN1CCCn1cnc2c([nH]c3ccc(F)cc32)c1=O	nt	nt	i	3	5	-7	-37	-12
COCCOC(=O)c1c(C)nc(SCC(=O)Nc2cccc3ccccc23)c(C#N)c1-c1ccco1	-3	-28	nt	-1	-8	-1	-20	-6
Cc1ccc(-n2c(C)cc(C3=NNC(=NC4CC4)SC3)c2C)cc1C	46	-8	i	4	0	-10	nt	-28
NC(=S)NNC(=O)Nc1ccc(Cl)c(Cl)c1	9	nt	i	0	1	8	nt	0
CCn1ccc(=N)cc1	-2	nt	i	-2	6	1	-7	-6
O=C(C[N+]1(CC#Cc2ccccc2)CCOCC1)c1ccc(Cl)cc1	20	-6	i	-3	0	6	nt	4
O=C(NCC1CCCO1)c1cccc(Oc2ccccc2)c1 (stereo not drawn)	4	-24	i	0	3	-4	-1	-1
COc1ccccc1NC(=O)c1c(C)nn(-c2ccccc2)c1Cl	2	-59	i	4	-4	-8	2	4
COc1ccc2c(C)c(C)c(=O)oc2c1OC	-14	2	i	2	6	4	nt	4
O=C(O)c1ccc(-c2nc(-c3ccc(Cl)c(Cl)c3)cs2)cc1	nt	nt	nt	7	1	2	nt	-8
O=C(OCC#CCSc1nnc(-c2ccncc2)o1)c1sc2ccccc2c1Cl	nt	-1	nt	2	-2	0	-16	5
COc1cc(CNC(=O)c2cc(C(=O)NCc3cc(OC)cc(OC)c3)n(C)n2)cc(OC)c1	nt	-38	nt	-1	-5	nt	18	nt
O=C(N[C@@H]1CC[C@@H](CCNS(=O)(=O)c2ccc(Cl)cc2)O[C@@H]1CO)c1cccnc1	nt	11[16.7 µM]	nt	-3	0	nt	0	nt
Clc1nc(NCCN2CCOCC2)nc(NCc2ccccc2)n1	-4	-101	i	1	3	-4	nt	7
CCOC(=O)C1CCN(C(=O)Nc2ccc(Cl)cc2)CC1	nt	nt	i	3	-1	-8	3	2
CCNC(=O)C(=O)Nc1cc2c3c(c1)CCC(=O)N3CCC2	-9	5	i	2	4	-2	-10	4

Additional structures follow.
SMILES	CSC inhib	Env fusion inh	Rce1 inh	MT1-MMP act inh	MT1-MMP act inh RFP	eIF4H inh	UUG fidelity	PABP polyA inh
O=C1C2CCCN2C(=O)N1CCCCN1CCN(c2ccccc2)CC1 (stereo not drawn)	-8	-8	i	-1	3	-12	-24	-4
O=C(Cc1ccccc1F)Nc1cc(S(=O)(=O)N2CCOCC2)ccc1N1CCCC1	-4	nt	nt	-9	0	nt	4	nt
O=C(NCCN1CCN(Cc2ccccc2)CC1)C1c2ccccc2C(=O)N2CCc3ccccc3C12 (stereo not drawn)	nt	nt	i	-2	5	-4	-12	2
CN1CCN(c2ccc(-c3cccc4nccn34)cn2)CC1	nt	5	nt	2	1	nt	-28	nt
COc1cccc(C2c3[nH]c4ccccc4c3C[C@H]3C(=O)N(CCCOC(C)C)CC(=O)N23)c1 (stereo partly drawn)	-8	-4	i	-1	4	2	-8	16
COc1ccc(CCN2C(=NC(C)=O)SC3CS(=O)(=O)CC32)cc1OC (stereo not drawn)	-14	-14	i	0	0	-3	6	-1
CC(=O)C1=C(O)C(=O)N(CCCO)C1c1ccccc1 (stereo not drawn)	-18	nt	i	7	1	-1	-15	-15
CC1=C([N+](=O)[O-])C(c2cccc(Br)c2)C2=C(N1)c1ccccc1C2=O (stereo not drawn)	53	138*	i	3	-9	0	-14	0
Cc1cccc(C)c1NC(=O)C1NC(=O)CC1c1ccccc1 (stereo not drawn)	-12	-8	i	-1	0	0	-22	4
CC1CCN(C(=O)c2ccc(NS(=O)(=O)c3cccs3)cc2)CC1	-5	-2	i	-3	-6	-3	0	3
CC(C)(C)c1nn2cnnc2n(/N=C/c2ccc(O)cc2)c1=O	-13	4	i	4	6	2	-18	2
CCN(CC)S(=O)(=O)c1cc(C)ccc1SC	14	21	i	-1	0	-3	-8	11
Cc1cccc(-c2nc(CN3CCN(C(=O)C4CCCO4)CC3)cs2)c1 (stereo not drawn)	-2	7	i	2	-8	-15	-25	-7
CCCc1ccc(C(=O)NC(=O)c2ccccc2O)cc1	13	-6	i	-4	-31	-6	-20	-5
O=S(=O)(Nc1ccccn1)c1cccs1	nt	-12	i	-2	4	-14	nt	-2
O=C(NCc1cccc(C(F)(F)F)c1)C1CC(c2cccc(F)c2)=NO1 (stereo not drawn)	44	7	i	2	2	10	-13	28
Cc1cc(N(CN2CCCC2=O)C(=O)c2ccc(OC(C)C)cc2)no1	-4	-3	i	2	-5	-5	nt	-2
C=CCn1c(SCC(=O)NC2CC2)nnc1-c1cccc(OC)c1	-2	12	i	2	1	-1	-17	-9
CCC(C)(C)NC(=O)C(c1ccc(OC)cc1)N(CCOC)C(=O)CCC(=O)Nc1nccs1 (stereo not drawn)	-13	17	i	1	5	3	nt	9
COCCN(C(=O)CNC(=O)c1ccco1)C(C(=O)NC1CCCCC1)c1cccc(OC)c1 (stereo not drawn)	28	nt	i	-4	5	-4	9	3
C=CCn1c(O)c(N=NC(=O)CNC(=O)c2ccncc2)c2ccccc21	2	5	i	0	4	-12	-25	2
Oc1ccc2ccc3[nH]cnc3c2c1	14	7	i	-3	-4	2	-22	2
COC(=O)[C@@]1(Cc2ccccc2)[C@@H]2C(=CC(=O)[C@H]2CC(=O)C(=O)N(C)C)CN1C(=O)c1ccccc1	32	nt	i	-14	-20	-5	10	13
NC(N)=NS(=O)(=O)c1ccc(NC(=S)NC(=O)/C=C/c2ccccc2)cc1	-19	15	i	5	6	-3	-11	6
